E coli growth: E. coli growth inhibition, primary screen, OD600; Escherichia coli growth, 23 h; hits give low values; OD600 absorbance (test concentration not listed); 330,000 compounds, 0.21% hits; AID 1053175, 2014;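 active means OD600 absorbance below the run mean of sample wells minus 3.6 SD, in any replicate, cut at about 0.56 in these data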;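 further: stock transfer was 300 nL into about 60 µL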
UCH37 DUB inh: inhibitors of human UCH37 deubiquitinase, primary screen, biochemical, Ub-AMC cleavage, fluorescence; Ubiquitin carboxyl-terminal hydrolase isozyme L5 (Homo sapiens), Q9Y5K5; purified proteasome/UCH37; inhibition, % (no concentration beside the values); 330,000 compounds, 0.33% hits; AID 588478, 2011;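 active means mean of two replicates above 20%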;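 further: 0% = compound-free wells with enzyme and 100% = wells lacking proteasome; stock transfer was 100 nL into about 20 µL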
Target sequence (Q9Y5K5 whole entry, looked up): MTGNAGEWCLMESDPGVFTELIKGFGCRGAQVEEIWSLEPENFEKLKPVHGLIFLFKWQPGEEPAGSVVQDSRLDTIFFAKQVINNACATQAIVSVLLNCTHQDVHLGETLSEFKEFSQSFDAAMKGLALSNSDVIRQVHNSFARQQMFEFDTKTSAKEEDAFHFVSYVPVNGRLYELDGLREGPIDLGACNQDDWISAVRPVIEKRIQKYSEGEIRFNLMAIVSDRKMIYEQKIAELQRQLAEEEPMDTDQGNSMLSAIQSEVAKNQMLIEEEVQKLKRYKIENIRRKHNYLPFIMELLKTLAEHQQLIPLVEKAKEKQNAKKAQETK
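Test system – human UCH37 enzyme supplied as purified proteasome complex · Incubation – 30 min preincubation with enzyme, 25 min cleavage at room temperature · Detection – AMC fluorescence from Ub-AMC cleavage, excitation 355 nm, emission 460 nm · Benchmarks – no-proteasome wells (full inhibition) and compound-free wells (no inhibition)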
AF4-AF9 inh: inhibitors of AF4 peptide binding to AF9, primary screen, biochemical, AlphaScreen, biotin-AF4 peptide, FLAG-AF9, single point; Protein AF-9 (Homo sapiens), P42568; inhibition, % at 10 µM; 350,000 compounds, 0.47% hits;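 active means every replicate reaching a set inhibition limit, whatever the replicate mean, cut at about 25% in these data; inconclusive means mean inhibition reaches that limit but some replicates miss it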;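 further: 0% = plate neutral control median and 100% = total signal loss; the record names both 10 and 1 µM as test concentration; the first replicate is given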
Vif A3G: inhibitors of Vif binding to APOBEC3G peptide, primary screen, biochemical, TR-FRET, GST-Vif 1-94, biotin-A3G peptide, dose response retest (AID 1117319); Virion infectivity factor (Human immunodeficiency virus type 1 group M subtype B (isolate …; TR-FRET GST-Vif / biotin-A3G peptide binding; higher % means a stronger effect; test concentration not given here; strong numbers were not always called active; one-dose inhibition, %; IC50 in µM for titrated hits; 260,000 compounds, 0.57% hits;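 active means above the screen mean plus three standard deviations and confirmed in dose response; inconclusive means results disagree or hit not tested in dose response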;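 further: Vif residues 1-94 fused to GST binding biotinylated APOBEC3G peptide 110-148; 0% = full assay without inhibitor and 100% = GST in place of GST-Vif; retest series ran down from 100 µM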
HNF4A DNA FP: change in binding of human HNF4A to DNA, primary screen, biochemical, fluorescence polarization, FITC-DNA; Hepatocyte nuclear factor 4-alpha (Homo sapiens), P41235; 1 h; activity change, % at 10 µM; 360,000 compounds, 0.3% hits; AID 1224865, 2016; in the data active means activity change above about 30%, passing the limit was not always enough;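 further: controls were the assay level and a saturating level of protein; the project sought stronger binding though the title names inhibitors; some compounds called inactive have numbers as strong as hits; positive values seem to mean higher polarization but the record does not say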
Target sequence (P41235 whole entry, looked up): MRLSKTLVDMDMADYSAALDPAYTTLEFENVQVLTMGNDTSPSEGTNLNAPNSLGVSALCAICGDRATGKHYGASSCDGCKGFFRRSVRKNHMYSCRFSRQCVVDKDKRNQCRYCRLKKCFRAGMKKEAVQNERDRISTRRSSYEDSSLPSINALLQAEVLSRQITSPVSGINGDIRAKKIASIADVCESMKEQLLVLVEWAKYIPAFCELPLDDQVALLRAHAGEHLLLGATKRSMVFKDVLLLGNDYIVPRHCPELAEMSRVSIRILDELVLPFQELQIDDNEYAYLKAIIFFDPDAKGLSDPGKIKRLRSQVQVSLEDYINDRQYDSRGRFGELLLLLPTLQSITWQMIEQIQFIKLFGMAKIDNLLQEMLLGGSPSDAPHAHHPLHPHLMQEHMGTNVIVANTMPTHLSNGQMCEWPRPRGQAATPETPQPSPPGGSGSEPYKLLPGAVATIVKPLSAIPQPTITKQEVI
RanGTP-Impb inh: inhibitors of RanGTP-importin-beta interaction, primary screen, biochemical, FRET, CFP-Ran, YFP-importin-beta, homogeneous | cell-free CFP-Ran/YFP-importin-beta FRET ratio | 300,000 compounds, 1.1% hits | inhibition, % (no concentration beside the values) | AID 2216, 2009 | Ran GTPase (GTP-bound) - importin-beta complex;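 active means most replicates above 15%; inconclusive means exactly half above 15%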;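 further: 0% = DMSO wells and 100% = Ran loaded with GDP instead of GTP; wells of about 40 µL received 100 nL stock; the first replicate is given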
FGF22 binding: binders of human FGF22 protein, primary screen, FGF22 synaptogenesis inhibitor project, biophysical, thermal shift, single point | Fibroblast growth factor 22 (Homo sapiens), Q9HCT0 | recombinant FGF22 thermal shift, SYPRO orange fluorescence; percent of sucrose octasulfate shift, DMSO zero | calls only at 9.99 µM | 340,000 compounds, 1.5% hits | AID 651658, 2012;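 active means melting point raised past a set limit in the mean and every replicate; inconclusive means no clear call; three in four hits are not shown here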
Starred values were filed as active, the others as inactive; i = inactive; ? = inconclusive; / = no result given. Only part of the results is shown; count on the stated rates, not on these rows.

SMILES | E coli growth | UCH37 DUB inh | AF4-AF9 inh | Vif A3G | HNF4A DNA FP | RanGTP-Impb inh | FGF22 binding
O=C1Nc2ccc(Br)cc2C(c2ccccc2Cl)=NC1O (stereo unspecified) | 0.734 | 1.1 | -18.2 | 2.6% | 0.2 | 2.6 | i
CC(C)C[C@H](NC(=O)[C@@H]1CCCN1C(=O)[C@@H](N)Cc1ccc(O)cc1)C(=O)NCC(N)=O | / | 4.7 | -2.0 | 1.6% | 3.4 | -3.0 | i
Cc1cccc(N2C(=O)NC(=O)/C(=C\c3ccc4c(c3)CCCN4Cc3ccccc3)C2=O)c1 | 0.673 | 7.4 | / | / | -4.4 | 7.9 | /
COC(=O)C1=C(c2cc3ccccc3o2)C[C@@H]2CC[C@H]1N2C(=O)N1CCCC1 | / | 1.2 | / | / | -0.8 | 4.7 | /
Cn1c(=O)c2c(nc(N/N=C/c3c(O)n(-c4ccccc4)c(=S)[nH]c3=O)n2C)n(C)c1=O | 0.708 | 21.4* | / | / | 2.1 | 2.2 | /
CC(C)(C)c1ccc(CSc2cnn(C(C)(C)C)c(=O)c2Cl)cc1 | 0.692 | 4.9 | 0.9 | / | 3.6 | 5.5 | i
COc1cccc(CC(=O)Nc2cc(S(=O)(=O)N3CCOCC3)ccc2N2CCN(C)CC2)c1 | 0.708 | 5.0 | -0.9 | 5.8% | -2.2 | / | i
CNC(=O)Oc1ccc2c(c1)C(=O)c1ccccc1CO2 | 0.691 | -2.9 | / | 10.2% | 0.3 | 2.7 | /
COC(=O)C1=C(c2ccc(F)cc2OCc2ccccc2)C[C@@H]2CC[C@H]1N2C | 0.753 | -1.8 | 0.3 | / | 1.3 | / | i
O=C(O)CCn1cc(C=C2C(=O)NC(=S)NC2=O)c(-c2cccc(Cl)c2)n1 | 0.701 | 7.0 | -6.7 | 15.2% | -5.5 | 1.3 | i
CN(C(=O)Oc1cccc2cccnc12)c1ccccc1 | 0.703 | 2.7 | / | ? | -4.0 | -0.5 | /
COc1cc(/C=C/[N+](=O)[O-])ccc1OC(=O)c1cccnc1 | 0.663 | 3.8 | -5.5 | / | -0.2 | -1.0 | i
CCC(=NCc1cc(OC)cc(OC)c1)c1c(O)n(C)c(=O)n(C)c1=O | 0.649 | 1.3 | / | 3.0% | 0.1 | ? | /
OCCOc1ccccc1 | 0.69 | 3.0 | -0.9 | / | 2.1 | / | i
CCOC(=O)[C@@H]1[C@H]2COc3ccc(Br)cc3[C@@H]2N2C(=O)N(c3cccc(C)c3)C(=O)[C@]12C | / | 3.3 | -4.9 | / | 0.0 | -0.2 | i
O=C(c1ccccc1F)c1cn(CC(=O)N2CCCCC2)c2ccccc12 | 0.768 | 1.6 | / | 1.8% | -2.0 | -8.5 | /
O=c1[nH]c(=O)n(Cc2ccccc2)c(O)c1C=NCCCO | 0.736 | 1.9 | / | -5.1% | 34.7* | 0.2 | /
Cc1ccccc1N1CCN(C2CCCN(C(=O)COc3ccccc3)C2)CC1 (stereo unspecified) | 0.713 | 2.9 | 3.2 | -7.2% | 1.9 | 8.4 | i
CNc1ccc2nc3ccccc3[n+](C)c2c1 | / | / | 9.2 | / | -17.2 | 2.9 | i
CCOP(=O)(C#CC(C)(C)C)C(O)(c1ccccc1)C(F)(F)F (stereo unspecified) | 0.767 | 3.7 | / | 7.0% | -1.3 | 2.1 | /
CC(=O)c1cn(Cc2ccc(C#N)cc2)c2ccccc12 | 0.707 | 3.2 | -0.7 | -37.5% | 1.4 | -1.4 | i
CC(C)(C)C(=O)Cn1c(NCCCl)nc2ccccc21 | 0.642 | 1.4 | 3.1 | -0.6% | 3.3 | ? | i
CCCCP(=O)(O)c1ccccc1 | 0.705 | 1.9 | / | 11.9% | -1.4 | 4.8 | /
CC1(C)CN=C(NCc2ccccc2Cl)S1 | 0.637 | 0.0 | / | 3.7% | 4.5 | 2.6 | /
COc1cccc(N2C(=O)NC(=O)/C(=C/c3ccc4c(c3)Cc3ccccc3-4)C2=O)c1 | 0.67 | -0.3 | -6.7 | 20.2% | 1.5 | -2.9 | i
CN1C(=O)NC(=O)C2(Cc3ccccc3N3CCOCC32)C1=O (stereo unspecified) | 0.717 | -0.4 | / | 21.7% | 1.2 | ? | /
CC1([N+](=O)[O-])COP(=O)(NC2CCCC2)OC1 (stereo unspecified) | / | / | -0.4 | / | -2.2 | / | i
Cc1cccc(NC(=O)C(C)N2CC=C(c3ccccc3)CC2)c1 (stereo unspecified) | 0.691 | 3.7 | 1.8 | -0.9% | 0.6 | -1.5 | i
CN(c1ccccc1)c1ccc([N+](=O)[O-])c2nonc12 | 0.678 | 11.8 | -6.4 | -1.8% | 15.8 | -5.0 | i
Cc1cc(/C=C2\C(=O)NC(=O)N(Cc3ccco3)C2=O)c(C)n1-c1ccc(O)cc1 | 0.61 | 1.8 | 1.4 | 5.88µM* | -12.1 | -2.4 | i
C[N+](C)(C)CCc1ccc(O)cc1 | 0.758 | 4.4 | -3.0 | / | -0.2 | ? | i
O=C1CN=C(c2ccccc2)c2c(sc3c2CCCC3)N1 | 0.715 | 3.3 | 2.9 | / | 1.2 | 0.2 | i
CC12CN3CC(c4ccccc4)(CN(C1)C31CCCCC1)C2=O | 0.761 | 0.0 | -3.8 | 14.7% | -1.4 | 1.7 | /
Cc1cc(N(CCCl)CCCl)ccc1/C=N/N=C(\N)c1cnccn1 | / | / | 17.9 | / | -1.9 | 9.0 | i
Oc1c(Br)cc(Br)cc1Br | 0.538 | -0.4 | / | / | 5.7 | / | i
CC12CN3CC(C)(CN(C1)C31CCSCC1)C2=O | 0.719 | 4.6 | / | 0.2% | 1.2 | 3.9 | /

12 compounds already listed, sorted by molar mass, rising.
SMILES | E coli growth | UCH37 DUB inh | AF4-AF9 inh | Vif A3G | HNF4A DNA FP | RanGTP-Impb inh | FGF22 binding
C[N+](C)(C)CCc1ccc(O)cc1 | 0.758 | 4.4 | -3.0 | / | -0.2 | ? | i
CCCCP(=O)(O)c1ccccc1 | 0.705 | 1.9 | / | 11.9% | -1.4 | 4.8 | /
CC1(C)CN=C(NCc2ccccc2Cl)S1 | 0.637 | 0.0 | / | 3.7% | 4.5 | 2.6 | /
CC1([N+](=O)[O-])COP(=O)(NC2CCCC2)OC1 (stereo unspecified) | / | / | -0.4 | / | -2.2 | / | i
CC12CN3CC(C)(CN(C1)C31CCSCC1)C2=O | 0.719 | 4.6 | / | 0.2% | 1.2 | 3.9 | /
CN(c1ccccc1)c1ccc([N+](=O)[O-])c2nonc12 | 0.678 | 11.8 | -6.4 | -1.8% | 15.8 | -5.0 | i
CC(C)(C)C(=O)Cn1c(NCCCl)nc2ccccc21 | 0.642 | 1.4 | 3.1 | -0.6% | 3.3 | ? | i
O=C1CN=C(c2ccccc2)c2c(sc3c2CCCC3)N1 | 0.715 | 3.3 | 2.9 | / | 1.2 | 0.2 | i
CC12CN3CC(c4ccccc4)(CN(C1)C31CCCCC1)C2=O | 0.761 | 0.0 | -3.8 | 14.7% | -1.4 | 1.7 | /
CN1C(=O)NC(=O)C2(Cc3ccccc3N3CCOCC32)C1=O (stereo unspecified) | 0.717 | -0.4 | / | 21.7% | 1.2 | ? | /
Oc1c(Br)cc(Br)cc1Br | 0.538 | -0.4 | / | / | 5.7 | / | i
Cc1cc(N(CCCl)CCCl)ccc1/C=N/N=C(\N)c1cnccn1 | / | / | 17.9 | / | -1.9 | 9.0 | i

Other records.
SMILES | E coli growth | UCH37 DUB inh | AF4-AF9 inh | Vif A3G | HNF4A DNA FP | RanGTP-Impb inh | FGF22 binding
Cc1ccc(S(=O)(=O)CC(=O)c2cc(C)c(OC(=O)N(C)C)c(C)c2)cc1 | 0.669 | 0.7 | 0.3 | 0.1% | -0.1 | -2.1 | i
O=C(CN1CCOCC1)c1cccc2ccccc12 | 0.716 | 3.0 | / | ? | 0.5 | -2.4 | /
CN1C[C@H](CO)C=C2c3cccc4[nH]cc(c34)C[C@H]21 | 0.684 | -208.2 | 15.5 | / | -33.7 | -10.6 | i
C/C=C1/C[C@@H](C)[C@](O)(CO)C(=O)OCC2=CCN3CC[C@@H](OC1=O)[C@@H]23 | / | 0.7 | -2.3 | / | -3.0 | / | i
